Screening results deposited in PubChem BioAssay by several laboratories.
Mtb bLac sens – beta-lactam sensitization of Mtb H37Rv, H37Rv | M. tuberculosis H37Rv growth with meropenem, percent inhibition; hits of this screen are not shown here | inhibition, % at 25 µM | 0.27% of 330,000 active;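 active = about 74% or more and at least 40 points above the plate without the antibiotic, then above 30% in a dose series; inconclusive = first-round hits that could not be retested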;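 note: growth measured after seven days incubation then overnight dye step; 0% = bacteria only wells and 100% = bacteria with antibiotic; twin plates without the antibiotic show which effects depend on it; some results filed as inactive read as strong as hits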
RecA intein inh – Mtb RecA intein splicing inhibitors, primary screen, biochemical, fluorescence, HTS | cell-free RecA intein splicing | inhibition, %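 (about 9 µM by stock and volumes)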 | 0.75% of 290,000 active; in the data active = inhibition above about 30%; inconclusive = no clear call, values can overlap the other calls;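 note: 0% = vehicle wells and 100% = reference inhibitor control wells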
Target sequence (P9WHJ3 whole entry, looked up): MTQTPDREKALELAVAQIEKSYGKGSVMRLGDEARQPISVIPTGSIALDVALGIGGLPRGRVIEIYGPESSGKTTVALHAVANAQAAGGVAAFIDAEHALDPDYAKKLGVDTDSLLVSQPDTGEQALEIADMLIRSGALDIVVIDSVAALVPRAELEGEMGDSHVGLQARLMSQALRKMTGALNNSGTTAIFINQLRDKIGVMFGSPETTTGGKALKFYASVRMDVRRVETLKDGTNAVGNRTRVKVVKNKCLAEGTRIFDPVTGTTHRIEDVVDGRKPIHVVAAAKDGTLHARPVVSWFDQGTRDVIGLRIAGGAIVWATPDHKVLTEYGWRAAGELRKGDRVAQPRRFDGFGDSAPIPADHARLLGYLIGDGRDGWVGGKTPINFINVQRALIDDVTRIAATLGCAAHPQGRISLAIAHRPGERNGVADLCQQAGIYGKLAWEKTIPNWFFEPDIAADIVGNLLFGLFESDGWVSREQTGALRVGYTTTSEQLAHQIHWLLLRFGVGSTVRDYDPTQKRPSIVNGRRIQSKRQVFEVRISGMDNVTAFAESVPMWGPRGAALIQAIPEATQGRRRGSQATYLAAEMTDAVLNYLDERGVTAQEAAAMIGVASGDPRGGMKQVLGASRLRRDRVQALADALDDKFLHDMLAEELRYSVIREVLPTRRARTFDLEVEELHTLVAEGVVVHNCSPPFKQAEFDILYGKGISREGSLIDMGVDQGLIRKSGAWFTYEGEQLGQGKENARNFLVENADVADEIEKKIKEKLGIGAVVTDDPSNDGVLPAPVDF
Arbovirus inh – antivirals against arbovirus infection, primary screen, cell-based, full library, 10K replicate subset; arbovirus infection cell-based antiviral screen; inhibition, % at 10 µM; 0.37% of 200,000 active;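 active = inhibition from about 30%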;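 note: bluetongue infection of BSR cells; cell survival read as ATP light after 72 h; 0% = infected wells without compound and 100% = uninfected wells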
YopH PTP inh – YopH tyrosine phosphatase inhibitors, primary screen, biochemical, fluorescence Ex485/Em525; inhibition, %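 (about 10 µM by stock and volumes)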; YopH tyrosine phosphatase [Yersinia enterocolitica]; AID 898, 2007; 0.16% of 140,000 active;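 active = inhibition of 50% or more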;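 note: controls were vehicle for no effect and minimum signal wells for full effect; inactives centre near -20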
Mtb H37Rv – M. tuberculosis H37Rv growth inhibitors, H37Rv strain (AID 1626). 0.95% of 220,000 active. inhibition, % at 10 µM; hits with a dose series show IC50 in µM. M. tuberculosis H37Rv growth inhibition; higher % means a stronger effect;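 active = confirmed in a dose series; inconclusive = inhibition above 80% but not taken into the dose series; inactive = below 80% or under 30% at every dose of the series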;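 note: bacteria incubated seven days before Alamar blue readout; 0% = bacteria only wells and 100% = bacteria with antibiotic wells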
Arbovirus inh repeat – also measured in Arbovirus inh; calls as there; inhibition, %; measured here: 10K subset replicate screen; many hits read low in the repeat;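 first of two repeat runs on a subset; 0% = infected and 100% = uninfected wells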
* hit, by the source's call; ? = inconclusive; . = no result given. Not all compounds are listed; the hit share may differ from the screen's.

SMILES | Mtb bLac sens | RecA intein inh | Arbovirus inh | YopH PTP inh | Mtb H37Rv | others
CC(C)NC(=O)N1CCCN(c2nc3ccc(Cl)cc3s2)CC1 | -2.6 | 1.7 | . | . | -3.6%
CCn1c(COc2ccccc2C)nc2ccccc21 | 15.6 | 5.9 | -6.8 | -35.4 | -6.5%
O=C(Nc1ccc2c(c1)OCCO2)c1cc2sccc2n1Cc1ccc(F)cc1 | 20.1 | 0.0 | 12.4 | -109.5 | 0.1%
O=C(CSc1nnc(NC(=O)c2ccc(S(=O)(=O)N3CCOCC3)cc2)s1)Nc1ccccc1C(F)(F)F | -1.4 | -1.2 | -0.5 | -34.7 | -3.5%
COc1cccc(CNC(=S)NC2CC2)c1 | -0.7 | 2.8 | 1.1 | . | -1.6%
Cc1ccn2c(=O)c(C(=O)NCCCN3CCCCC3C)c(O)nc2c1 (centres undefined) | 12.0 | 1.6 | . | . | .
CCc1cccc(OCCCCN(CC)CC)c1 | -4.3 | -2.1 | -12.2 | 1.2 | -6.0%
CN(C)S(=O)(=O)Oc1cccc(C(=O)Nc2ccccc2Cl)c1 | -3.5 | . | -0.8 | -44.4 | -2.5%
CCOC(=O)N/N=C\c1cccc(OC)c1OC/C=C/c1ccccc1 | 5.3 | 3.7 | . | . | .
N#Cc1ccc(CSc2nnc(NC(=O)C3CC(=O)N(c4ccc5c(c4)OCCO5)C3)s2)cc1 (centres undefined) | 32.9 | 0.0 | 4.2 | -8.8 | 10.8%
CCCCCN1CC(=O)N2[C@@H](Cc3c([nH]c4ccccc34)C2(C)C)C1=O | -7.6 | 0.8 | . | . | .
Cn1ncc([N+](=O)[O-])c1C(=O)Nc1ccc(-c2nc3ccccc3[nH]2)cc1 | 5.0 | . | -17.7 | 9.8 | -10.0%
COc1cccc(C(=O)N(CN2CCCC2=O)c2cc(C)on2)c1 | ? | 6.7 | 2.5 | -29.8 | -1.7%
O=[N+]([O-])c1nn(-c2ccc(Cl)cc2)n(O)c1=NCc1ccccc1 | 100.2 | -5.2 | -9.3 | . | 6.5%
COc1ccc(S(=O)(=O)Nc2ccc3c(c2)OCO3)cc1 | 89.7 | 5.1 | -6.4 | 8.3 | 8.1%
COc1ccc(-c2nn(C)c(=O)c3ccccc23)cc1NC(=O)Cn1nc(-c2ccccc2)c2ccccc2c1=O | -5.8 | 7.7 | -10.0 | -118.1 | -0.7%
COc1ccc2[nH]cc(C(=O)NCCc3ccccc3)c(=O)c2c1 | 2.7 | 0.1 | . | . | .
O=C(NCCNc1ccc([N+](=O)[O-])cc1)c1cc(F)c(F)cc1Cl | -1.2 | 3.0 | . | . | .
CCc1c(O)nc(SC2CC(=O)N(c3ccc(F)c(Cl)c3)C2=O)[nH]c1=O (centres undefined) | -4.6 | -1.6 | . | . | .
O=c1[nH]c(/C(=N\O)c2ccccc2)no1 | 1.5 | -1.9 | 1.5 | -4.7 | -5.5%
Nc1ccc(CCc2ccc(N)cc2)cc1 | 95.2 | -0.1 | . | . | .
CCN(CC(=O)Nc1ccc(NC(C)=O)cc1)C(=O)CCCOc1ccc(C(C)(C)C)cc1 | -8.1 | -1.4 | . | . | .
CC1=N/C(=C\c2ccc(OC(C)C)cc2)C(=O)N1c1ccc(C(=O)O)cc1 | 40.3 | -3.7 | -8.2 | -11.1 | 1.8%
COc1cc(C(=O)NCC(c2cccnc2)N2CCN(c3ccccc3)CC2)cc(OC)c1OC (centres undefined) | -5.7 | 1.0 | -2.6 | -39.6 | -1.0% | Arbovirus inh repeat=5.3
CCc1ccc(NC(=O)C2=CC(c3ccc(OC)c(OC)c3)=NS(=O)(=O)N2C)cc1 | -2.6 | 4.5 | . | . | .

Next part
SMILES | Mtb bLac sens | RecA intein inh | Arbovirus inh | YopH PTP inh | Mtb H37Rv | others
CC(C)NC(=S)N1CCN(C(c2ccccc2)c2ccccc2)CC1 | 6.3 | 4.9 | 5.2 | -17.2 | -1.1%
CCN(CC)S(=O)(=O)c1ccc(NC(=O)Cc2cccs2)cc1 | -4.1 | -0.1 | 13.1 | . | -3.1%
CCOC(=O)Cc1csc(NC(=O)C(C)Oc2ccc3c(C)cc(=O)oc3c2)n1 (centres undefined) | -0.2 | 1.6 | 0.1 | . | 1.9%
CCN(CC)CCNC(=S)Nc1ccc(F)cc1 | -3.0 | -1.1 | 3.2 | . | 0.4%
Cc1nc(-c2ccccc2)nc2sc(C(=O)c3ccc(F)cc3)c(N)c12 | 3.3 | -16.8 | . | . | 3.6%
CCOC(=O)c1c(-c2ccccc2)csc1NC(=O)CSc1nc(N)cc(N)n1 | 2.2 | 7.7 | 2.3 | -18.6 | 3.3%
CCN1C(=O)[C@@H]2[C@@H](c3ccc(-c4cccc(Cl)c4)cc3)N3CCC[C@@]3(C(=O)OC)[C@@H]2C1=O | 53.9 | 6.8 | . | . | .
CN(c1ccccc1)S(=O)(=O)c1cc(Cl)ccc1Cl | 0.1 | 7.7 | -0.6 | . | 0.6%
O=C(CCc1ccccc1)Nc1nc2n(n1)C(c1ccc(Cl)cc1)CC(=O)N2 (centres undefined) | -11.6 | -3.8 | 2.7 | 2.4 | -4.7%
O=C(Nc1cccc(-n2cnnn2)c1)c1cccs1 | -4.1 | 4.2 | . | . | .
CCOc1ccc(CCNC(=O)C2CC(=O)N(c3ccc4c(c3)OCCO4)C2)cc1OCC (centres undefined) | -7.2 | -1.6 | . | . | .
COc1cccc(C(=O)NC(=O)Nc2nc(C)cc(C(F)(F)F)n2)c1 | 4.4 | -0.6 | . | . | .
COc1ccc(CNCCNC(=O)c2cccs2)c(OC)c1OC | 3.2 | -1.8 | 3.4 | . | -9.2%
CCOc1ccc(N2CC(C(=O)NCCc3ccc(OC)c(OC)c3)CC2=O)cc1 (centres undefined) | . | 0.3 | -3.9 | -7.0 | 2.7%
Cc1c(-c2nc(-c3cccnc3)no2)cccc1[N+](=O)[O-] | 1.1 | -0.5 | -3.7 | . | 3.9%
COc1ccc(N2CCN(C3CCCN(C(=O)c4ccoc4)C3)CC2)cc1 (centres undefined) | -12.2 | -9.0 | . | . | .
CCCCC1CN2CCc3c([nH]c4ccccc34)C2(C)C1 (centres undefined) | -4.7 | 8.1 | . | . | .
COc1ccc(CNC(=O)COc2ccc(Br)c(C)c2)cc1 | 6.5 | 9.5 | . | . | .
CSc1n[nH]c(=O)n1C1CCCCC1 | -2.7 | 1.9 | . | . | -7.9%
O=C(N/C(=C/C=C\c1ccccc1)C(=O)N1CCOCC1)c1ccc(Br)cc1 | 77.2 | 4.6 | 8.2 | . | 64.4%
COc1cc2nc(N(CCN(C)C)C(=O)c3ccc(S(=O)(=O)N(C)CC4CCCO4)cc3)sc2cc1OC (centres undefined) | -1.2 | -1.1 | . | . | .
Cc1cc(NC(=O)CSc2ccc(-c3cccc([N+](=O)[O-])c3)nn2)no1 | 15.4 | -3.2 | 12.2 | . | 13.3%
CCOCc1cc(C2NC(=O)NC(C)=C2C(=O)OCC)ccc1OC (centres undefined) | -9.5 | 3.0 | 7.8 | 24.0 | 4.1%
Cc1ccccc1NC(=O)Cn1nnc2sc3c(c2c1=O)CC(C)(C)OC3 | 5.0 | -1.3 | . | . | -1.0%
COc1ccc(N(C(=O)Cn2nnc(-c3ccc(F)cc3)n2)C(C)C(=O)NC2CCCC2)cc1 (centres undefined) | -3.9 | 4.0 | . | . | .

More records:
SMILES | Mtb bLac sens | RecA intein inh | Arbovirus inh | YopH PTP inh | Mtb H37Rv | others
COc1ccc(/C=N/NC(=O)CN2CCSCC2)c(OC)c1 | 0.0 | -2.8 | -10.7 | 5.3 | -1.0%
COc1ccc(N2CC(NC(=O)NCCC(C)C)CC2=O)cc1 (centres undefined) | -3.4 | 0.8 | -3.3 | -4.3 | -2.6%
C=C(C)c1cccc(C(C)(C)NC(=O)N2CCN(CC(N)=O)CC2)c1 | 3.2 | 0.2 | 11.6 | -9.6 | -0.4%
COc1ccc(C2SCC(=O)N2CC23CC4CC(CC(C4)C2)C3)cc1 (centres undefined) | 16.2 | 6.8 | -33.9 | 6.3 | 9.8%
COc1ccc(OCC(O)CN2CCN(CC(O)COc3ccc(OC)cc3)CC2)cc1 (centres undefined) | -2.4 | -1.3 | . | . | .
O=C(CNS(=O)(=O)c1cccs1)N1CCc2ccccc2C1 | 0.9 | 0.1 | 0.9 | -34.5 | -1.3%
COc1ccc(/C=N/NC(=O)Cn2nnc3ccccc32)cc1OC | -1.8 | 1.7 | -2.5 | -30.1 | -4.2%
O=S(CCc1ccncc1)Cc1ccccc1 (centres undefined) | -7.8 | 3.9 | -3.8 | -23.9 | 0.6%
CCn1c2ccccc2c2nnc(SCC(=O)Nc3ccc4c(c3)OCO4)nc21 | 6.8 | 1.9 | -14.2 | -24.6 | -6.1%
CC(=O)Nc1ccc(Nc2cc(C)nc3ccccc23)cc1 | -7.0 | -0.2 | . | . | .
CCOc1ccc(/C=C(\C)C(=O)c2c(C)cc(C)[nH]c2=O)cc1 | -1.9 | -3.3 | . | . | .
CCN1C2=NCCCN2c2ccccc21 | -6.0 | 0.8 | 1.4 | -19.3 | -2.6%
C=CC(COCc1ccccc1)N(Cc1ccc(OC)cc1)S(=O)(=O)c1ccccc1Br (centres undefined) | -7.5 | 3.3 | . | . | -21.0%
O=C(COC(=O)c1ccccn1)Nc1ccc(S(=O)(=O)N2CCOCC2)cc1 | -3.9 | -0.1 | 10.0 | -14.0 | -10.3%
O=P(C(=Nc1ccc(Cl)cc1)N1CCOCC1)(N1CCOCC1)N1CCOCC1 | -8.7 | . | 2.9 | -1.6 | -3.6%
Cc1ccc(OCC(=O)N/N=C/c2ccncc2)cc1C | 98.2 | -0.8 | . | . | 64.2%
CC(NC(=S)NCCN1CCOCC1)C12CC3CC(CC(C3)C1)C2 (centres undefined) | -3.7 | -1.9 | 3.2 | . | 5.3%
COc1cccc(NC(=O)CN(C)C(C)C(=O)Nc2cc([N+](=O)[O-])ccc2Cl)c1 (centres undefined) | -4.0 | 1.5 | 9.2 | . | 10.9%
Cc1ccc(-c2ccc(=O)n(CC(=O)NCCN(C)C)n2)cc1 | 6.3 | 4.9 | 5.2 | -33.6 | 6.6%
O=C(NCCO)c1cccc2c1C(=O)c1ccccc1-2 | 9.6 | -0.2 | -1.3 | -23.3 | 1.7%
Cc1ccccc1CN(c1ccc(C(=O)NCCC2=CCCCC2)cc1)S(C)(=O)=O | -9.0 | -5.5 | 2.1 | -34.2 | 2.1%
O=C(NCCCNC(=O)c1ccccn1)c1ccc(F)cc1 | 2.6 | 0.1 | . | . | .
COc1cc(/C=N/n2c(C)nc3ccccc3c2=O)cc(OC)c1O | -6.0 | -5.4 | . | . | .
Cc1ccccc1NC(=O)Cc1nc(CCl)cs1 | -3.9 | -4.4 | 4.5 | 10.4 | -1.5%
O=C(O)c1cccc(CSc2nnc(-c3ccc(Cl)cc3)o2)c1 | -3.6 | -1.4 | . | . | .
CCN1C/C(=N\S(=O)(=O)/N=C2\CN(CC)C(=O)N2CC)N(CC)C1=O | -4.3 | -1.2 | . | . | 4.7%
COc1cc(C(=O)NCc2ccc3c(c2)OCO3)ccc1OCc1c(C)noc1C | 7.8 | -3.1 | -2.3 | -20.1 | -10.8% | Arbovirus inh repeat=-1.6

Seven compounds drawn at random from the list so far:
SMILES | Mtb bLac sens | RecA intein inh | Arbovirus inh | YopH PTP inh | Mtb H37Rv | others
COc1cc(/C=N/n2c(C)nc3ccccc3c2=O)cc(OC)c1O | -6.0 | -5.4 | . | . | .
Cc1ccc(OCC(=O)N/N=C/c2ccncc2)cc1C | 98.2 | -0.8 | . | . | 64.2%
COc1ccc(N2CC(NC(=O)NCCC(C)C)CC2=O)cc1 (centres undefined) | -3.4 | 0.8 | -3.3 | -4.3 | -2.6%
CCn1c2ccccc2c2nnc(SCC(=O)Nc3ccc4c(c3)OCO4)nc21 | 6.8 | 1.9 | -14.2 | -24.6 | -6.1%
O=C(O)c1cccc(CSc2nnc(-c3ccc(Cl)cc3)o2)c1 | -3.6 | -1.4 | . | . | .
CC(NC(=S)NCCN1CCOCC1)C12CC3CC(CC(C3)C1)C2 (centres undefined) | -3.7 | -1.9 | 3.2 | . | 5.3%
O=C(COC(=O)c1ccccn1)Nc1ccc(S(=O)(=O)N2CCOCC2)cc1 | -3.9 | -0.1 | 10.0 | -14.0 | -10.3%
